# Screens (PubChem)
# MgrA DNA FP: S. aureus MgrA activity modulators, primary screen, biochemical, S. aureus Newman, fluorescence polarization; MgrA-DNA binding; inhibition, %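 (about 10 µg/mL by stock and volumes)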; 0.13% of 84,000 active;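 active means above 50% in either of two replicates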;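 further: 0% = protein plus DNA without compound and 100% = DNA alone without protein; higher means less MgrA bound to DNA so lower polarization; one replicate is shown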
# S aureus helic: inhibitors of S. aureus replicative helicase, primary screen, biochemical, fluorescence unwinding readout; replicative DNA helicase (DnaC/DnaB), Staphylococcus aureus; purified S. aureus helicase, fluorescence unwinding assay; about half of the hits fall short of the stated cut; inhibition, %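 (tested at about 80 µM)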; 0.05% of 120,000 active; AID 485395, 2010;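 active means both duplicates at 50% or more, or one of them with a favoured structure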;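 further: 0% = mean of negative control wells and 100% = mean of positive control wells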
# Starred values were filed as active, the others as inactive; x = no result given. A portion of the library; count on the stated rates, not on these rows.
# Fields: MgrA DNA FP, S aureus helic
O=C(c1cc(=O)c2ccccc2o1)N1CCCc2ccccc21
 : x, -1.0
COc1ccc(CCNC(=O)c2cnc3scc(C)n3c2=O)cc1OC
 : x, -7.0
O=C(c1cc(F)cc2c1OCOC2)N1CCC(O)(c2ccc(Cl)cc2)CC1
 : -2.5, x
O=S(=O)(NCC1CCCO1)c1ccc(-n2cccn2)cc1 (centres undefined)
 : -0.2, -3.0
O=C(CSc1nnc(-c2ccccc2)o1)NC1CCCC1
 : 2.8, 3.0
O=C(CN1C(=O)/C(=C\c2ccccc2)Oc2ccccc21)NCCc1ccccc1
 : 0.3, 7.0
O=C(Nc1ccccc1)Nc1ccc(C(=O)N2CCCCC2)cc1
 : -0.9, 6.0
C=CCn1c(SCC(=O)c2ccc(N(C)S(C)(=O)=O)cc2)nnc1C1CCCCC1
 : x, 11.0
CC1(C)Cc2ccccc2CN1C(=O)c1ccccc1
 : 2.8, 3.0
COc1ccc(CCNC(=O)c2ccccc2)cc1
 : -3.1, 16.0
CC(=O)NCc1ccc2c(c1)cc(C)n2C
 : x, 16.0
CC(=O)N1CCN(c2ccc3ccccc3n2)CC1
 : x, -11.0
O=C(CCc1nc2ccccc2c(=O)[nH]1)Nc1cccc(O)c1
 : x, -10.0
CC1(C)C2CC=C(/C=N/NC(=O)COc3ccc(C#N)cc3)C1C2 (centres undefined)
 : x, 6.0
Cc1nc(-c2cccc(N)c2)cs1
 : x, 8.0
Nc1c(S(=O)(=O)Cc2ccc(Cl)cc2)sc2nc3c(cc12)CCCC3
 : 3.7, 6.0
Cn1nc2c(c1N)CCC2
 : x, 1.0
COC(=O)C(CC(C)C)NC(=O)c1ccccc1C (centres undefined)
 : x, 1.0
O=C(CSc1nnc(-c2ccccc2)n1-c1ccccc1)NC1=NCCS1
 : x, 9.0
COCCCn1c(=O)c2ccccc2n(Cc2ccccc2)c1=O
 : -2.8, 6.0
O=C1C(=O)N(CCc2c[nH]c3ccccc23)C(c2ccccn2)/C1=C(/O)c1ccccc1 (centres undefined)
 : -3.0, -3.0
CCc1ccc2nc(NC(=O)Cn3ccc(=O)[nH]c3=O)sc2c1
 : x, 10.0
Cc1ccc(C2NC(c3ccc(C)cc3)C(C)C(=NO)C2C)cc1 (centres undefined)
 : x, 2.0
CCc1cc2c(ncn3cnnc23)s1
 : 1.1, -10.0
CC(Sc1ccccn1)C(=O)Nc1ccccc1 (centres undefined)
 : 3.9, -4.0
CCSc1nc2n(n1)C(c1cccs1)C1=C(CCCC1=O)N2 (centres undefined)
 : -0.9, 12.0
CC(NC1CCN(C)CC1)c1ccccc1 (centres undefined)
 : 2.0, 9.0
Clc1cccc(OCCN2CCN(c3ccccc3)CC2)c1
 : -4.6, 6.0
C=CCN1C(C(=O)c2ccccc2)=C(NC(=O)c2ccc(OC)cc2)c2ccccc2S1(=O)=O
 : x, -2.0
FC(F)(F)c1ccnn1-c1nc(-c2cc3ccccc3o2)cs1
 : x, -31.0
Cc1ccc(NC(=O)c2cnc3ccccn3c2=O)cc1
 : 1.4, -8.0
Nc1ccc(Oc2cc(C(F)(F)F)ccc2Cl)cc1F
 : -1.3, x
CC1CN(Cc2c(O)ccc3c(=O)c(-c4ccccc4)coc23)CC(C)O1 (centres undefined)
 : 1.3, 2.0
CCC(C)Nc1ncnc2sccc12 (centres undefined)
 : -1.6, x
CC(=O)NCCn1ccc2ccccc21
 : x, -13.0
CCCc1cc(=O)n2nc(N3CCC(C(=O)N4CCCC4)CC3)sc2n1
 : x, -18.0
CCCNC(=O)Cn1c2ccccc2c2nc3n(c(=O)c21)CCS3
 : -5.9, 2.0
CC1=C(C(=O)N2CCCCC2)C2(CCC(C)CC2)OC1=O (centres undefined)
 : x, 27.0
O=C(NC(=O)c1sc2ccccc2c1Cl)c1ccccc1O
 : 2.1, x
Cn1c(=O)c2cc(C(=O)N3CCCC3)sc2c2ccccc21
 : -0.9, 18.0
CCCCc1ccc(/C(C)=C/C(=O)O)cc1
 : x, 1.0
CCn1c(SCC(=O)Nc2cc(C)on2)nc2sc(C)c(C)c2c1=O
 : x, 8.0
c1ccc2c(c1)NCC1CCCN21 (centres undefined)
 : x, 0.0
CCCn1c(SCC(=O)N(CC)C2=CCCCC2)n[nH]c1=O
 : x, 6.0
Oc1cccc(N=Cc2cc(Br)ccc2O)c1
 : 8.2, -10.0
CCN(CC)S(=O)(=O)c1ccc(C(=O)NC2CCCCC2)cc1
 : x, -3.0
O=c1oc2cc(OCc3ccc(Cl)cc3)ccc2c2c1CCC2
 : 1.1, -7.0
COCc1nnc(NC(=O)c2ccc3c(c2)OCO3)s1
 : x, 9.0
CC(=O)NC(=O)c1cc2cc([N+](=O)[O-])ccc2oc1=Nc1ccc(Cl)cc1Cl
 : -0.7, x
CN(C(=O)COC(=O)c1c(F)cccc1Cl)C1CCCCC1
 : 3.5, -6.0

# Other structures follow.
# Fields: MgrA DNA FP, S aureus helic
Cc1ccc(S(=O)(=O)N=C2C=CC(=NS(=O)(=O)N(C)C)C=C2)cc1
 : x, 12.0
COC(=O)Cc1cc(=O)n2c(nc3ccccc32)[nH]1
 : 0.4, -4.0
O=C1CSC(c2ccc(OC(F)F)cc2)N1c1ccc(Br)cc1 (centres undefined)
 : -4.0, x
NNC(=O)c1nnn(-c2nonc2N)c1CN1CCCCC1
 : 0.1, -7.0
CC1(C)O[C@@H]2CC3C4C[C@H](F)C5=CC(=O)C=CC5(C)C4C(O)CC3(C)[C@]2(C(=O)CO)O1 (some centres undefined)
 : 3.0, x
O=C(NCCc1ccccc1)c1ccc(N2CCCCS2(=O)=O)cc1
 : x, 6.0
O=C(Cn1ncc2c(=O)oc3ccccc3c21)Nc1ccccc1F
 : x, 27.0
Cc1oc(-c2ccccc2Cl)nc1CSCC(=O)O
 : -2.1, 4.0
COc1ccc2c(CC(=O)OCC(=O)C(C)(C)C)coc2c1
 : x, 0.0
Cc1c(Cl)cccc1N1C(=O)C=CC1=O
 : -10.9, -1.0

# Shown field by field: two of the compounds above
Cc1ccc(C2NC(c3ccc(C)cc3)C(C)C(=NO)C2C)cc1 (centres undefined)
  MgrA DNA FP: x
  S aureus helic: 2.0

CCc1cc2c(ncn3cnnc23)s1
  MgrA DNA FP: 1.1
  S aureus helic: -10.0

# Next section:
# Fields: MgrA DNA FP, S aureus helic
Cc1cc(-c2ccc(N3C(=O)CCC3=O)c(C)c2)ccc1N1C(=O)CCC1=O
 : 1.1, -2.0
Cc1ccc(N=C(NO)c2cnccc2C(F)(F)F)c(C)c1
 : -3.7, x
CC(C)Cc1ccc(-c2cc(=O)[nH][nH]2)cc1
 : 0.1, -9.0
Cc1ccsc1CNc1ccc2[nH]c(=O)[nH]c2c1
 : x, 9.0
O=C(/C=C/c1ccccc1)Nc1nnc(C(F)(F)F)s1
 : 12.2, 8.0
O=C(CSc1ccc2nnc(CCNS(=O)(=O)c3ccccc3)n2n1)Nc1ccc2c(c1)OCO2
 : x, 9.0
O=C(NN1C(=O)/C(=C/c2ccccc2[N+](=O)[O-])SC1=S)c1ccc(Br)cc1
 : 0.6, x
O=C(O)CSc1nc(-c2ccccc2)c(-c2ccccc2)[nH]1
 : -5.0, 7.0
Cc1ccc2onc(CNC(=O)NC3CCCC(C)C3C)c2c1 (centres undefined)
 : 2.3, 2.0
Cc1ccccc1Cn1cc(SCC(=O)N2CCCc3ccccc32)c2ccccc21
 : 0.7, 1.0

# Filtered by structure: those above containing a furan ring, fused or not
# Fields: MgrA DNA FP, S aureus helic
FC(F)(F)c1ccnn1-c1nc(-c2cc3ccccc3o2)cs1
 : x, -31.0
COc1ccc2c(CC(=O)OCC(=O)C(C)(C)C)coc2c1
 : x, 0.0

# New compounds follow:
# Fields: MgrA DNA FP, S aureus helic
CCCCn1c(=N)n(CCO)c2ccccc21
 : x, -7.0
CC1=CC(C)C2C(=O)N(c3ccccc3)C(=O)C2C1 (centres undefined)
 : 0.3, 6.0
Cc1ccc2c(c1)CCCN2C(=O)Nc1cccc(C)c1C
 : -1.7, 0.0
CCCCN1CCc2[nH]c(=S)[nH]c(=O)c2C1
 : 0.0, 6.0
CCc1ccc(O)c(C2(O)C(=O)c3ccccc3C2=O)c1
 : 1.1, x
COC(=O)COc1ccc2c(=O)c(-c3ccc(Cl)cc3)coc2c1
 : 3.1, -10.0
c1csc(C2Nc3ccccc3O2)c1 (centres undefined)
 : 2.3, x
CC1=C(C(=O)OCC(F)(F)F)C(c2ccccc2)NC(=O)N1 (centres undefined)
 : x, 3.0
O=C(O)CCCn1nc(C(F)(F)F)c2c1CCCCC2
 : -2.4, -1.0
COc1ccc(/C=C/c2onc3ccccc23)cc1
 : -0.6, x

# More results follow.
mol	MgrA DNA FP	S aureus helic
Cc1ccc(N(C)C(=O)C2CCCN2S(=O)(=O)c2ccc3c(c2)n(C)c(=O)c(=O)n3C)cc1 (centres undefined)	x	-6.0
COC(=O)C(C)N(C#N)c1nc(N(C)C)nc(N(C)C)n1 (centres undefined)	x	-17.0
CN(C)S(=O)(=O)NCC1CCCO1 (centres undefined)	x	18.0
CC1(C)CC(=O)c2c(nn(-c3ccccc3)c2N)C1	1.9	4.0
O=C(COc1ncnc2c1cnn2-c1ccccc1)N1CCN(S(=O)(=O)c2ccc(Cl)cc2)CC1	x	10.0
CCn1c(=NC(=O)C2CC2)sc2c(OC)ccc(OC)c21	x	13.0
CCOC(=O)CN1CSC2=C(C#N)C(c3ccc(OC)cc3)CC(=O)N2C1 (centres undefined)	x	-2.0
N#CC(C(=O)c1cccs1)=C1SCCS1	-0.6	x
Clc1cccc(-c2noc(-c3ccsc3)n2)c1	0.6	x
COc1ccc(-c2nnc(C3CCN(C(=O)c4c(F)cccc4F)CC3)o2)cc1	13.8	1.0
COc1cccc(C2C3=C(CC(C)(C)CC3=O)OC3=C2C(=O)CC(C)(C)C3)c1O	-5.2	x
CCc1nn2c(=O)cc(CSc3nnc(N)s3)nc2s1	x	8.0

# The closing 4 records of the section above lead into the next.
mol	MgrA DNA FP	S aureus helic
Clc1cccc(-c2noc(-c3ccsc3)n2)c1	0.6	x
COc1ccc(-c2nnc(C3CCN(C(=O)c4c(F)cccc4F)CC3)o2)cc1	13.8	1.0
COc1cccc(C2C3=C(CC(C)(C)CC3=O)OC3=C2C(=O)CC(C)(C)C3)c1O	-5.2	x
CCc1nn2c(=O)cc(CSc3nnc(N)s3)nc2s1	x	8.0
COC(=O)C(C)NC(=O)N1CCC2(CC1)NC(=O)c1ccccc1O2 (centres undefined)	x	5.0
Cc1nc2cc3c(cc2s1)OCO3	x	2.0
Cc1ccc(C)c(N2CCN(C(=O)c3ccc4nc(N5CCOCC5)sc4c3)CC2)c1	x	-1.0
COc1cc2c(cc1OC)CN(C(=O)c1cccc(S(=O)(=O)N3CCCCC3)c1)CC2	x	6.0
NC(=O)c1ccc[n+](CCO)c1	x	-24.0
NCC(O)COc1c(Cl)cccc1Cl (centres undefined)	-0.5	x
CCN(c1ccccc1)S(=O)(=O)c1ccc(C(=O)OCC#N)cc1	x	-7.0
C=C(C)c1cccc(C(C)(C)NC(=O)NNc2nc(C)cc(C)n2)c1	x	-11.0
COc1ccc(-c2csc(Nc3cccnc3)n2)cc1	-2.0	x
C=CCSc1nc(C)c(C(=O)Nc2ccccc2)c(-c2ccc(OC)cc2)c1C#N	1.1	x
Cn1cc(Cl)c(/C=C(\C#N)S(=O)(=O)C(C)(C)C)n1	-3.0	x
O=C(C1CCCN(Cc2ccccc2)C1)N1CCCCCC1 (centres undefined)	x	6.0
O=c1ccc2ccccc2n1Nc1ccc(Br)cc1	x	32.0
CCN(CC(=O)Nc1ccc(S(N)(=O)=O)cc1)CC(=O)Nc1cc(Cl)ccc1C	x	12.0
CCCCc1ccc(NC(=O)CC)c(C)c1	x	-9.0
C=CCn1c(CNc2ccc(C)cc2)nnc1SCC(=O)c1ccccc1	1.1	-1.0
COC(=O)c1scc(S(=O)(=O)Cc2ccco2)c1N	-1.4	x
O=C1CN(C(=O)COc2ccc(Cl)cc2)C2(CCCCC2)C(=O)N1	x	12.0
N#Cc1ccsc1NC(=O)c1ccco1	x	-26.0
O=C(Oc1ccc(S(=O)(=O)c2ccc(OC(=O)c3cccs3)cc2)cc1)c1cccs1	2.7	2.0
CC(=O)NCCc1ccc(S(=O)(=O)Nc2ccc3ncn(C)c(=O)c3c2)cc1	0.3	-6.0
O=C(CNc1ccncc1)c1c[nH]c2ccccc12	-2.4	-39.0
CCS(=O)(=O)N1CCc2cc(C(=O)CSc3nnc(C4CCCCC4)o3)ccc21	x	2.0
CN(c1ccc(O)cc1)S(=O)(=O)c1ccccc1	3.6	-10.0
C=C(C)C1CCC2(C)OC(=O)N(Cc3ccccc3)C12C (centres undefined)	-0.3	1.0
CCN(CC)CCN1C(=O)c2ccccc2NC1c1ccc2c(c1)OCO2 (centres undefined)	1.7	0.0
O=c1sc2ccccc2n1Cc1nnc(SCc2ccccn2)n1-c1ccccc1	x	8.0
CCSc1ccc(C(=O)NCC(=O)O)cc1	-2.6	x
O=C(Cc1ccc(Cl)cc1)Nc1ccc(-c2nnc3n2CCCCC3)cc1	1.2	-12.0
Cc1cc(C(=O)NCc2cccs2)cs1	-0.2	25.0
CN(C(=O)Nc1ccccc1)C1CCS(=O)(=O)C1 (centres undefined)	-1.4	3.0
CCOc1cc(/C=C/C(=O)O)ccc1OCC(C)C	-0.8	19.0
O/N=C/c1ccnc(SCc2ccccc2)n1	-0.5	x
CN(C(=O)c1cc2nc(-c3ccco3)cc(C(F)(F)F)n2n1)C12CC3CC(CC(C3)C1)C2	4.0	-7.0
N#CC1=C(N)OC2=C(C(=O)CCC2)C1c1c(F)cccc1Cl (centres undefined)	0.2	5.0
COC(=O)c1cccc(OCC(O)CNCCC2=CCCCC2)c1 (centres undefined)	x	-16.0
O=C(CC12CC3CC(CC(C3)C1)C2)Nc1noc2ccccc12	x	-17.0
Cn1c(=O)c(=O)n(C)c2cc(S(=O)(=O)CCC(=O)NCc3ccccc3)ccc21	3.2	2.0
CCOC(=O)c1cc(NC(=O)N(C(C)C)C(C)C)c(C)nc1C	1.1	-13.0
